Source: PubChem BioAssay
StopGo RLuc: lowers the Renilla signal of an FMDV 2A StopGo reporter. Potency, µM (top dose mostly 57.5 µM), without a hit: at the top dose signal change, negative = less light. 120,000 compounds, 0.32% hits. HEK cells with a luciferase reporter of 2A StopGo recoding; active means well fitted falling curve with a large enough effect; inconclusive means small, poorly fitted or top-dose-only effect; inactive means no such curve, though single readings can be large or run the other way; note: nearly all actives have a fitted effect of over 55% in size; overnight with compound
StopGo FLuc: FMDV 2A StopGo reporter, firefly signal; HEK cells with a luciferase reporter of 2A StopGo recoding; Potency, µM (highest dose often 57.5 µM), for the others: at the highest dose signal change, negative = less light; 120,000 compounds, 0.23% hits; AID 1745856; active = well fitted falling curve with a large enough effect; inconclusive = small, poorly fitted or top-dose-only effect; inactive = no such curve, though single readings can be large or run the other way; note: nearly all actives have a fitted effect of over 60% in size; overnight with compound
Starred values were filed as active, the others as inactive; & = joins results of further samples; [ ] = dose if it differs, or a comment. % is set by controls: 0 for no effect and ±100 for the full control effect; potency is the fitted concentration of half-maximal effect.

How did CC(NS(=O)(=O)c1ccccc1F)C(=O)Nc1ccc(C(C)(C)C)cc1 (stereo not given) do in these assays?
StopGo RLuc: -7%; StopGo FLuc: 1%

How did CCCNC(=O)CN(C)Cc1nc2ccccc2o1 do in these assays?
StopGo RLuc: 44%[activator]; StopGo FLuc: 123%[activator]

How did c1csc(-c2nc3ccccn3c2Nc2ccc3c(c2)OCCO3)c1 do in these assays?
StopGo RLuc: 11%; StopGo FLuc: 78%[activator]

How did CCC(C)(C(=O)NC1CCCCC1)N(C(=O)CNC(=O)c1ccccc1)c1ccc(C)cc1 (stereo not given) do in these assays?
StopGo RLuc: 6%; StopGo FLuc: -22%

What do the screens show for `COc1cc(CNC(=O)CCc2ccncc2)ccc1OC1CCCC1`?
StopGo RLuc: -3%; StopGo FLuc: 1%

Results for CCn1cc(C(=O)N2CCN(c3ccccc3OC)CC2)c2cc(OC)c(OC)cc2c1=O ?
StopGo RLuc: 27%; StopGo FLuc: 8%

Results for Cc1ccc(CN(C)C(=O)CN2CCCC2c2ccc3c(c2)OCCO3)cc1 (stereo not given) ?
StopGo RLuc: -6%; StopGo FLuc: -12%

Results for COc1ccc(-c2nc3c4ccccc4n(CC(=O)Nc4ccc(C(C)C)cc4)c(=O)n3n2)cc1 ?
StopGo RLuc: -9%; StopGo FLuc: 26%

What do the screens show for `CC(C)Cn1c(SCC(=O)c2ccc(C#N)cc2)nnc1-c1ccccc1`?
StopGo RLuc: -1%; StopGo FLuc: -10%

Results for OC(CCN1CCCCC1)(c1ccccc1)c1ccccc1 ?
StopGo RLuc: -8%; StopGo FLuc: -13%[11.5 µM]

What do the screens show for `COc1ccc(NC(=O)N2CCCn3nc(C)cc32)cc1OC`?
StopGo RLuc: -7%; StopGo FLuc: -8%

Results for CCC(C)c1ccccc1NC(=O)COc1ncnc2ccc(Br)cc12 (stereo not given) ?
StopGo RLuc: 9%; StopGo FLuc: -4%

Results for NS(=O)(=O)c1cc(C(=O)O)c(NCc2ccco2)cc1Cl ?
StopGo RLuc: -9%; StopGo FLuc: -5%[11.5 µM]

How did Cc1cc(C(=O)NC(C)CCc2ccccc2)c2cccc(C)c2n1 (stereo not given) do in these assays?
StopGo RLuc: 7%; StopGo FLuc: 0%

How did CCCCCc1ccc(-c2ccc(C3CCC(CCC)CC3)c(F)c2)nc1 (stereo not given) do in these assays?
StopGo RLuc: 53%[activator]; StopGo FLuc: 0%

How did COc1ccccc1OC(C)C(=O)Nc1ccc(OC)c2ncccc12 (stereo not given) do in these assays?
StopGo RLuc: 18%; StopGo FLuc: 14%

Results for O=C(O)c1cccc(-c2ccc(CNC3CCCCC3)o2)c1 ?
StopGo RLuc: 8%; StopGo FLuc: 13%

How did CCOC(=O)C(NC(=O)Cc1c[nH]c2ccccc12)C(=O)OCC do in these assays?
StopGo RLuc: -11%[1.06 µM]; StopGo FLuc: -2%

Results for COc1ccc(OC)c(/C=C/C(=O)c2cc3ccccc3o2)c1 ?
StopGo RLuc: 11%; StopGo FLuc: 37%[activator]

What do the screens show for `NC(N)=NC(N)=Nc1cc(Cl)cc(Cl)c1`?
StopGo RLuc: inconclusive; StopGo FLuc: -15%

Results for Cc1ccc2c(CC(=O)Nc3c(C(=O)c4ccc(C)c(F)c4)oc4ccccc34)coc2c1 ?
StopGo RLuc: -13%; StopGo FLuc: 11%

Results for CCCCOC(=O)CCCCCCCCC(=O)OCCCC ?
StopGo RLuc: 1%; StopGo FLuc: -7%

What do the screens show for `CC1(C)CO[C@@H](CC(=O)O)CN1`?
StopGo RLuc: -8%; StopGo FLuc: -10%

Results for COc1ccc(C2=NN3C(C2)c2ccccc2OC32CCN(C(C)=O)CC2)c(OC)c1 (stereo not given) ?
StopGo RLuc: 6%; StopGo FLuc: 229%[activator]

Results for O=C1CCCC2=C1C(c1cccc(Br)c1)n1nc(-c3ccccc3)nc1N2 (stereo not given) ?
StopGo RLuc: 4%; StopGo FLuc: -1%

How did CC(C)CC(=O)Nc1nnc(S(=O)(=O)N2CCCCCC2)s1 do in these assays?
StopGo RLuc: 2%; StopGo FLuc: -9%

Results for Cc1nc2ccc(C(=O)N3CCN(C(=O)CCC4CCCC4)CC3)cc2nc1C ?
StopGo RLuc: 6%; StopGo FLuc: 0%

What do the screens show for `Cc1ccc(NC(=O)CN2C(=O)C(c3ccccc3)=NC2(C)C)cc1C`?
StopGo RLuc: -2%; StopGo FLuc: 0%

How did Cc1ccc(N/N=C/c2ccc(F)c(F)c2)cc1 do in these assays?
StopGo RLuc: 20%; StopGo FLuc: 0%

Results for O=C(CCS(=O)(=O)c1cc(Br)cc2c1N(C(=O)C1CC1)CC2)Nc1ccc(C(F)(F)F)cc1 ?
StopGo RLuc: 258%[activator]; StopGo FLuc: 88%[activator]

How did C=CC[N+]1([C@H]2C[C@H]3[C@@H]4CC[C@H]5C[C@H](OC(C)=O)[C@@H](N6CCCCC6)C[C@]5(C)[C@H]4CC[C@]3(C)[C@H]2OC(=O)CC)CCCCC1 do in these assays?
StopGo RLuc: -13%; StopGo FLuc: -17%

What do the screens show for `COc1ccc(-c2[nH]c3c(c2-c2c(-n4cccc4)n(C)c(=O)n(C)c2=O)c(=O)n(C)c(=O)n3C)cc1`?
StopGo RLuc: -6%; StopGo FLuc: -4%

What do the screens show for `CCN1C(=O)N/C(=C/c2cn(CC(=O)Nc3ccc(C)cc3)c3ccccc23)C1=O`?
StopGo RLuc: -6%; StopGo FLuc: -8%

Results for CC1CCN(S(=O)(=O)c2ccc(-c3nc(C#N)c(NCCCn4ccnc4)o3)cc2)CC1 ?
StopGo RLuc: 152%[activator]; StopGo FLuc: 9%

What do the screens show for `CCOC(=O)CN(C)CC(=O)NCCC(C)C`?
StopGo RLuc: 5%; StopGo FLuc: -9%

Results for COCCn1c(=O)c2c(nc(-n3nc(C)c(C)c3C)n2Cc2ccccc2F)n(C)c1=O ?
StopGo RLuc: -6%; StopGo FLuc: -8%

What do the screens show for `Cc1ccc2c(c1)-c1c(cnn1CC(=O)N1CCN(c3ccccc3F)CC1)CO2`?
StopGo RLuc: -2%&-11%; StopGo FLuc: -1%&-14%

How did COC(=O)C1=CN(Cc2cccs2)C=C(C(=O)OC)C1c1cccc(O)c1 do in these assays?
StopGo RLuc: -1%; StopGo FLuc: -12%

How did Cc1cccc(N2CCN(c3ncnc4c3cnn4-c3ccc(Cl)cc3)CC2C)c1 (stereo not given) do in these assays?
StopGo RLuc: 11%; StopGo FLuc: -6%

Results for O=C(CCn1cnc2sc3c(c2c1=O)CCCC3)NC1CCCC1 ?
StopGo RLuc: -3%; StopGo FLuc: 11%

How did Cc1cc(C)c(S(=O)(=O)NCC(c2ccco2)S(=O)(=O)c2ccccc2)c(C)c1 (stereo not given) do in these assays?
StopGo RLuc: 194%[activator]; StopGo FLuc: 22%

How did Cc1cc(Cl)ccc1OCC(=O)N(Cc1ccco1)Cc1ccccc1F do in these assays?
StopGo RLuc: 29%; StopGo FLuc: inconclusive

Results for Cc1ccc2c(COC(=O)C3=NN(C)C(=O)CC3)cc(=O)oc2c1 ?
StopGo RLuc: -11%; StopGo FLuc: -16%

How did COc1cc2ncc(C(=O)c3ccc(C)cc3)c(N3CCCCC3)c2cc1OC do in these assays?
StopGo RLuc: -8%; StopGo FLuc: -26%

Results for CC(C)(C)c1ccc(C(=S)NCCC2=CCCCC2)cc1 ?
StopGo RLuc: -5%; StopGo FLuc: 0%

What do the screens show for `O=C(CC1C=CCC1)NCCc1ccccn1` (stereo not given)?
StopGo RLuc: 7%; StopGo FLuc: 0%

What do the screens show for `Cc1cccc(NC(=O)CN2CCN(C(=O)NCc3ccccc3)CC2)c1C`?
StopGo RLuc: -9%; StopGo FLuc: 5%

How did COc1ccc(-c2nc3c(s2)CN(C(C(=O)O)c2c[nH]c4ccc(CO)cc24)CC3)cc1 (stereo not given) do in these assays?
StopGo RLuc: -1%; StopGo FLuc: -32%

What do the screens show for `CCOc1cccc(-c2nnc3n2N=C(c2ccc4c(c2)OCO4)CS3)c1`?
StopGo RLuc: 14%; StopGo FLuc: 17%

What do the screens show for `COc1cc(NC(=O)c2noc3c2CCc2ccccc2-3)cc(OC)c1OC`?
StopGo RLuc: -15%; StopGo FLuc: 3%

At a glance, part of the list above:
How did COc1cc2ncc(C(=O)c3ccc(C)cc3)c(N3CCCCC3)c2cc1OC do in these assays?
StopGo RLuc: -8%; StopGo FLuc: -26%

Results for CC(C)(C)c1ccc(C(=S)NCCC2=CCCCC2)cc1 ?
StopGo RLuc: -5%; StopGo FLuc: 0%

What do the screens show for `O=C(CC1C=CCC1)NCCc1ccccn1` (stereo not given)?
StopGo RLuc: 7%; StopGo FLuc: 0%

What do the screens show for `Cc1cccc(NC(=O)CN2CCN(C(=O)NCc3ccccc3)CC2)c1C`?
StopGo RLuc: -9%; StopGo FLuc: 5%

Additional results follow.
Results for CCCCNC(=O)c1cc2cccc(OC)c2oc1=O ?
StopGo RLuc: -3%; StopGo FLuc: 6%

Results for Cc1cccc(C(C)C)c1NC(=O)C(C)OC(=O)C1=CN2CCS(=O)(=O)N=C2C=C1 (stereo not given) ?
StopGo RLuc: -10%; StopGo FLuc: 2%

What do the screens show for `COC(=O)C1CCN(C(=O)CSc2nnc(-c3ccccc3Cl)n2C2CCCC2)CC1`?
StopGo RLuc: -6%; StopGo FLuc: 0%

How did Cc1ccc(C(CNC(=O)c2cc(=O)c3ccc(C)c(C)c3o2)N(C)C)o1 (stereo not given) do in these assays?
StopGo RLuc: -2%; StopGo FLuc: -3%

What do the screens show for `CC(CN1CCCCC1)C(=O)O` (stereo not given)?
StopGo RLuc: -5%; StopGo FLuc: -2%

How did CCc1ccc(-n2nc(CO)c(C(=O)NCc3ccccc3OC)n2)cc1 do in these assays?
StopGo RLuc: -4%; StopGo FLuc: -9%

What do the screens show for `COc1ccc2c(c1)c(N1CCCC1=O)c(C(=O)Nc1ccc(Cl)cc1C)n2C`?
StopGo RLuc: 15%; StopGo FLuc: -12%

What do the screens show for `CCOc1ccc(-c2ccc(NS(=O)(=O)c3ccc(C)cc3)cc2)nn1`?
StopGo RLuc: 101%[activator]; StopGo FLuc: 19%

How did COc1ccc(F)cc1C(=O)/C=C/c1ccc(C#N)cc1 do in these assays?
StopGo RLuc: 0%; StopGo FLuc: 0%

What do the screens show for `CCC1CCc2sc(C(=O)NC(C)C)cc2C1` (stereo not given)?
StopGo RLuc: 5%; StopGo FLuc: 154%[activator]

Ordered by molecular weight (largest number first): three of the compounds above
What do the screens show for `COc1ccc2c(c1)c(N1CCCC1=O)c(C(=O)Nc1ccc(Cl)cc1C)n2C`?
StopGo RLuc: 15%; StopGo FLuc: -12%

How did COc1ccc(F)cc1C(=O)/C=C/c1ccc(C#N)cc1 do in these assays?
StopGo RLuc: 0%; StopGo FLuc: 0%

What do the screens show for `CC(CN1CCCCC1)C(=O)O` (stereo not given)?
StopGo RLuc: -5%; StopGo FLuc: -2%

Remaining list, next part
How did CCc1ccc(N(Cc2cccs2)C(=O)c2cccc(C)c2)cc1 do in these assays?
StopGo RLuc: -25%; StopGo FLuc: inconclusive

How did COc1ccc2c(c1)c(C(C(=O)O)N1CCN(Cc3cccnc3)CC1)cn2CCC(=O)O (stereo not given) do in these assays?
StopGo RLuc: -1%; StopGo FLuc: 3%

How did Cc1ccc(N2CC(NC(=O)/C=C\c3ccc4c(c3)OCO4)CC2=O)cc1C (stereo not given) do in these assays?
StopGo RLuc: 13%; StopGo FLuc: -18%

Results for Cc1nn2c(ncc3c(=O)[nH]ccc32)c1-c1ccccc1 ?
StopGo RLuc: 0%; StopGo FLuc: 63%[activator]

What do the screens show for `COc1ccc(NC(=O)c2c(-c3ccc(OC)cc3)oc3ccc(OC)cc23)cc1`?
StopGo RLuc: 11%; StopGo FLuc: 20%

Results for CCC(C(=O)NCCc1ccc(Cl)cc1)n1nc(C)c2c(C)n(-c3ccccc3)nc2c1=O (stereo not given) ?
StopGo RLuc: 30%; StopGo FLuc: -12%

How did CCc1ccc(-c2nc(SC(C(=O)N(C)C)c3ccccc3)n[nH]2)cc1 (stereo not given) do in these assays?
StopGo RLuc: inconclusive; StopGo FLuc: inconclusive

What do the screens show for `CC(C)CCNc1nc(-c2ccc([N+](=O)[O-])cc2)c(C(=O)Nc2ccccc2)s1`?
StopGo RLuc: 2%; StopGo FLuc: 56%[activator]

What do the screens show for `O=C(Nc1ccccc1)Nc1nnc(-c2ccccc2)o1`?
StopGo RLuc: -4%; StopGo FLuc: 0%

Results for N#CCCCN1CCCC1Cc1ccccc1 (stereo not given) ?
StopGo RLuc: 4%; StopGo FLuc: -8%

Among those listed so far, 3 contain bromine.
Results for CCC(C)c1ccccc1NC(=O)COc1ncnc2ccc(Br)cc12 (stereo not given) ?
StopGo RLuc: 9%; StopGo FLuc: -4%

Results for O=C1CCCC2=C1C(c1cccc(Br)c1)n1nc(-c3ccccc3)nc1N2 (stereo not given) ?
StopGo RLuc: 4%; StopGo FLuc: -1%

Results for O=C(CCS(=O)(=O)c1cc(Br)cc2c1N(C(=O)C1CC1)CC2)Nc1ccc(C(F)(F)F)cc1 ?
StopGo RLuc: 258%[activator]; StopGo FLuc: 88%[activator]
